# Source: PubChem BioAssay
# AF4-AF9 inh: inhibitors of AF4 peptide binding to AF9, primary screen, biochemical, AlphaScreen, biotin-AF4 peptide, FLAG-AF9, single point. inhibition, % at 10 µM. 350,000 compounds, 0.47% hits. AID 651704, 2012;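 active = every replicate reaching a set inhibition limit, whatever the replicate mean, cut at about 25% in these data; inconclusive = mean inhibition reaches that limit but some replicates miss it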;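 also: 0% = plate neutral control median and 100% = total signal loss; the record names both 10 and 1 µM as test concentration; the first replicate is given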
# T cruzi repl: inhibitors of intracellular T. cruzi growth, primary screen, luminescence, NIH3T3 host cells | 300,000 compounds, 1.4% hits | inhibition, % (test concentration not listed) | T. cruzi beta-gal in NIH3T3, 90 h | AID 1885, 2009;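 active = mean inhibition across valid replicates above about 55%, limit read from the data; inconclusive = mean below that limit but half or more replicates reach it; inactive = mean below it, under half of replicates reach it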;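 also: signal also drops with host cell toxicity which is not excluded here; 0% = plate median of DMSO wells and 100% = zero luminescence signal; higher percent means less beta-gal luminescence so fewer parasites; stock transfer was 50 nL into about 50 µL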
# RanGTP-Impb inh: inhibitors of RanGTP-importin-beta interaction, primary screen, biochemical, FRET, CFP-Ran, YFP-importin-beta, homogeneous; Ran GTPase (GTP-bound) - importin-beta complex; cell-free CFP-Ran/YFP-importin-beta FRET ratio; inhibition, % (concentration not given with the values); 300,000 compounds, 1.1% hits;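 active = most replicates above 15%; inconclusive = exactly half above 15%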;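 also: 0% = DMSO wells and 100% = Ran loaded with GDP instead of GTP; wells of about 40 µL received 100 nL stock; the first replicate is given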
# Beta cell apopt: inhibitors of cytokine-induced beta cell apoptosis, primary screen, luminescence | protection from apoptosis, % (test concentration not listed) | INS-1E cytokine-induced death, ATP luminescence, 48 h; percent of positive-control rescue, neutral wells zero | 300,000 compounds, 0.8% hits;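 active = all replicates at 75% or more, or half of them and the mean; inconclusive = half reach 75% but not the mean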;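 also: 0% = cytokine-treated negative control wells and 100% = positive control rescue; higher means more ATP so stronger rescue from cytokine killing; wells of about 40 µL received 100 nL stock; the first replicate is given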
# Calb FLC: C. albicans growth inhibition with fluconazole, primary screen, CaCi-2 strain, Alamar Blue fluorescence; C. albicans CaCi-2 (fluconazole-resistant clinical isolate) + fluconazole, 48 h; growth inhibition, % (concentration not given with the values); 300,000 compounds, 0.57% hits; AID 1979, 2009;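 active = most replicates above 75%; inconclusive = exactly half above 75%; inactive = most below 75%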;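 also: all wells also contain fluconazole at 8 µg/ml as a sub-toxic cotreatment; 0% = median of DMSO wells and 100% = median of geldanamycin control wells; wells of about 8 µL received 7.5 nL stock; the first replicate is given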
# A1 inh: caspase 3/7 activation in MEF A1-2A-BIM cells, primary screen, A1 inhibitor project, cell-based, luminescence, HTS | Caspase-Glo 3/7 luminescence, 3 h; percent of clofoctol response, vehicle zero | caspase activation, % (concentration not given with the values) | 330,000 compounds, 0.066% hits;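 active = over half of replicate activation scores above 10%, or exactly half above 10 with the replicate mean above 10; inconclusive = replicate mean below 10 yet half the replicates above 10; inactive = over half of replicates below 10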;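 also: wells of about 30 µL received 50 nL stock; many hits fall short of the cut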
# LANA-H2A inh: blockers of LANA interaction with H2A/H2B – biochemical, FP readout, HTS, primary screen; cell-free LANA-H2A/H2B peptide, fluorescence polarization; inhibition, % (test concentration not listed); 320,000 compounds, 0.6% hits; AID 2629, 2010; in the data active = inhibition mostly above about 10%, no sharp cut-off; inactive = mostly below about 6.7%;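 also: stock transfer was 7.5 nL into about 10 µL; 0% = median of vehicle wells and 100% = median of positive control wells; one replicate is shown; the record names a cut of 25% in any replicate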
# Target sequence (Q9QR71 whole entry, looked up): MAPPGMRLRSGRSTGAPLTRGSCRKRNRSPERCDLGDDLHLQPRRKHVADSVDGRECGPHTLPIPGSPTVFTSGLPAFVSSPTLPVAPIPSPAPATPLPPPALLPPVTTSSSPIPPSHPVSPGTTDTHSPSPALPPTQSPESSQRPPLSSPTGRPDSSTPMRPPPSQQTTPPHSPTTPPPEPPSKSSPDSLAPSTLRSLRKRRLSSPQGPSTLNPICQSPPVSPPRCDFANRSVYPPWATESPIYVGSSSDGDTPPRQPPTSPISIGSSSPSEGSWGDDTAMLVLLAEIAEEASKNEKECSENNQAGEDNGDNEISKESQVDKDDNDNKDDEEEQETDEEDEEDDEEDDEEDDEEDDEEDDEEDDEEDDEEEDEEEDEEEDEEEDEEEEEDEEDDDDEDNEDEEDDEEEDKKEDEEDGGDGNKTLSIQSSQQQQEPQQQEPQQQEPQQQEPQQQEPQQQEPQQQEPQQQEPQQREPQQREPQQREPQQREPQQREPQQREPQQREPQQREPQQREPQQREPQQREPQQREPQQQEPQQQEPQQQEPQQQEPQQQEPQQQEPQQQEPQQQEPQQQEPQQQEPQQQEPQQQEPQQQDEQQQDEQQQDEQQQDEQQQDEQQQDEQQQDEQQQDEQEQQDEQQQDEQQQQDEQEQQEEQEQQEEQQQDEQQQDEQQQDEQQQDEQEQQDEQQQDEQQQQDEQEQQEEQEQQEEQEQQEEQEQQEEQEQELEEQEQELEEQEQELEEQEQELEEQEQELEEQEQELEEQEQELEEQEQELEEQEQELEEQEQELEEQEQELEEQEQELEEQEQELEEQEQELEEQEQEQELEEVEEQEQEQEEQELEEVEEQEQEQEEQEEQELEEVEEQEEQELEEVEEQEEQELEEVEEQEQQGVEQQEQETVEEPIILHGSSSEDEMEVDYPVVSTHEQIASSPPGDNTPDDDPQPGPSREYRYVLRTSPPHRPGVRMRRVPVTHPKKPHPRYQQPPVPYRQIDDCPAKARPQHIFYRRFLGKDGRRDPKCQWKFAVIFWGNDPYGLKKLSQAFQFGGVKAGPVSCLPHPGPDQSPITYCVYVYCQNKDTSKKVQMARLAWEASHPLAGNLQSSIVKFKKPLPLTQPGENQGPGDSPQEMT
# Vif TR-FRET: inhibitors of Vif binding to APOBEC3G peptide, primary screen, biochemical, TR-FRET, GST-Vif 1-94, biotin-A3G peptide, dose response retest (AID 1117319). Virion infectivity factor (Human immunodeficiency virus type 1 group M subtype B (isolate …. TR-FRET GST-Vif / biotin-A3G peptide binding; higher % means a stronger effect; test concentration not given here; strong numbers were not always called active. inhibition, %, or IC50 in µM where a hit was titrated. 260,000 compounds, 0.57% hits;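 active = above the screen mean plus three standard deviations and confirmed in dose response; inconclusive = results disagree or hit not tested in dose response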;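 also: Vif residues 1-94 fused to GST binding biotinylated APOBEC3G peptide 110-148; 0% = full assay without inhibitor and 100% = GST in place of GST-Vif; retest series ran down from 100 µM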
# Numbers without * were called inactive; ? = inconclusive; nt = no result given; & = joins results of further samples.
SMILES,AF4-AF9 inh,T cruzi repl,RanGTP-Impb inh,Beta cell apopt,Calb FLC,A1 inh,LANA-H2A inh,Vif TR-FRET
Cn1ccnc1SCC(=O)NC1CCCC1,1.0,2,6.1,-5,-3,-0.3,-5.0,nt
Cc1ccc(SCCC(=O)OC(C)C(=O)Nc2ccccc2)cc1 (stereo not given),-2.0,-9,1.0,-8,6,-0.9,7.6,-2%
O=C(O)c1ccc2c(c1)C(=O)N(c1ccc(Cl)cn1)C2=O,-0.5,-11,1.1,-5,-5,?,0.7,-10%
O=C(NCc1cccnc1)c1nc(-c2ccccc2)n(-c2ccccc2)n1,0.3,-3,0.8,-1,-1,0.3,-1.2,nt
COc1cc(C)nc(Oc2ccc(/C=N/O)cc2)n1,nt,-14,0.5,-6,nt,0.4,1.9,-2%
CCSC1(SCC)N=C(N)C2(C#N)C(c3ccc(OC)c(OC)c3OC)C12C#N (stereo not given),nt,2,1.5,-6,1,0.2,-1.3,-10%&0%
COC(=O)c1[nH]c2ccc(F)cc2c1NS(=O)(=O)c1ccc(F)c(C)c1,nt,10,-6.3,-3,37,-0.1,5.1,9%
COc1ccccc1CNC(=O)CCC(=O)N1Cc2cccc(OC)c2Oc2ncccc21,-1.1,-3,1.0,-4,14,1.0,-2.3,nt
COc1ccc(CCNC(=O)C(C)OC(=O)c2nsc(Cl)c2Cl)cc1OC (stereo not given),0.5,-19,1.6,-1,-5,-0.2,1.0,nt
Cc1cccc(N2CCN(C(=O)COc3cc(=O)n(C)c4ccccc34)CC2)c1C,nt,-1,-0.3,-7,-1,0.6,5.6,0%
CCN(CC)CCN(Cc1cc2ccc(C)cc2[nH]c1=O)C(=S)Nc1ccccc1C(=O)OC,3.1,36,-0.4,-10,-9,-0.6,0.5,-2%
O=C1CC2(CCCCC2)Oc2ccccc21,2.1,-4,-2.3,-2,2,1.8,0.3,nt
CCOc1ccccc1C(=O)OCC(=O)Nc1nnc(-c2ccccc2)o1,-21,-12,0.8,-5,0,-0.5,nt,-4%
CS(=O)(=O)c1ccccc1-c1csc(N2CCC(C(N)=O)CC2)n1,-1.3,nt,nt,-10,nt,-0.3,0.8,nt
N/C(=N\OC(=O)Cc1ccc(-c2ccccc2)cc1)c1ccncc1,-2.5,4,0.8,2,-2,-0.3,-2.8,nt
CN(C)C=NCCn1c(N2CCOCC2)nc2c1c(=O)n(C)c(=O)n2C,nt,-4,?,1,5,-0.1,nt,1%
CCn1c(CSCc2ccc(C)cc2)nnc1SCC(=O)N1CCN(c2ccccc2)CC1,nt,23,2.9,-3,6,1.3,3.1,9%
CCCn1c(-c2cccnc2Cl)nc2cc(Cl)c(Cl)cc21,7.2,15,3.2,5,2,-0.6,0.0,3%
NC(=O)C1CCN(C(=O)c2ccc(-c3ccccc3)cc2)CC1,nt,4,0.1,-5,-7,-0.8,4.6,1%
CC(CN1CCCCC1)OC(=O)CCc1ccccc1 (stereo not given),0.2,6,-3.4,nt,10,-0.1,-0.3,9%
Cc1nnc(NC(=O)CSc2ccc(-c3ccco3)nn2)s1,-3.5,0,?,-4,7,0.2,-2.5,-2%
Cc1cc(C)c(C(=O)OCC(=O)NC(=O)c2ccccc2)c(C)c1,-27,-15,-1.8,2,-2,-0.7,1.5,-4%
O=C(CSc1nc2c(c(=O)n1-c1ccc(Cl)cc1)SCC2)N1CCOCC1,-4.6,7,-0.9,0,-14,0.4,0.6,1%
CCC(C)(C)NC(=O)c1cc(OC)c(OC)cc1[N+](=O)[O-],nt,6,1.5,-4,-1,0.1,-2.8,0%
O=C(Nc1ccc2c(c1)OCO2)c1c[nH]c(=O)n(-c2ccc(F)cc2)c1=O,1.6,-5,-1.0,5,-3,0.1,2.8,nt
SMILES,AF4-AF9 inh,T cruzi repl,RanGTP-Impb inh,Beta cell apopt,Calb FLC,A1 inh,LANA-H2A inh,Vif TR-FRET
COc1ccc(C2NC(C(=O)O)CS2)cc1COCC(F)(F)F (stereo not given),nt,-2,-2.0,4,-23,-0.2,1.1,6%
CC1(C)CC(=O)C=C(Nc2ccc(F)cc2)C1,1.1,-14,27*,-11,0,0.1,1.0,30%
CC(=O)NC1(c2ccccc2)CCN(CC(=O)N2CCC(C)CC2)CC1,-0.4,0,-2.4,-4,?,-0.3,5.5,nt
COc1ccc(SC[C@H](CC(C)C)N2CCN(CCc3ccccc3)CCC2=O)cc1,nt,23,-7.6,14,-25,0.1,5.2,nt
CN(Cc1ccccc1)C(=O)COc1ccccc1Cl,0.0,-1,-2.3,nt,6,0.0,3.1,-14%
O=C(CN1C(=O)/C(=C\c2ccccc2F)SC1=S)Nc1nc2ccccc2s1,0.2,-17,4.6,-1,8,0.3,-0.7,1%
CCC(CO)Oc1cc(NC(=O)c2ccccc2N)c2ncn(C(C)C)c2c1 (stereo not given),1.8,nt,nt,-5,nt,-1.0,-3.9,nt
CCc1nc(NCc2cccnc2)c2oc3ccccc3c2n1,nt,-2,?,2,0,-0.5,0.9,5%
Cc1ccc(NC(=O)CCNC(=O)c2ccc(Cl)cc2)cc1F,-5.6,6,-3.0,-3,-22,1.4,-3.0,-7%
CC12CCC(C(=O)Nc3ccccc3)(C(Br)C1=O)C2(C)C (stereo not given),-1.8,19,-3.9,-5,-5,0.0,0.2,17%
Cc1ccc(C(=O)Nc2cccc(C(F)(F)F)c2)cc1NC(=O)c1nccnc1N,-4.7&1.7,-7,-1.1,-8,-13,-1.1,0.5,4%
COc1ccc(OC)c(/C=N/NC(=O)c2c(C)nc3ccc(C)cn23)c1,0.4,-9,4.6,-2,8,1.1,-0.7,-2%
CCc1ncc(CN2CCCC(C(=O)Nc3ccc(-c4cscn4)cc3)C2)cn1 (stereo not given),0.0,-1,0.3,-4,-4,-0.1,-0.5,-10%
COC(=O)/C(=C1/Oc2ccc(C(C)(C)C)cc2S1)C(F)(F)F,-22,-34,0.5,6,-10,0.3,-1.4,2%
O=C(c1ccc(Cl)c(S(=O)(=O)N2CCCC2)c1)N1CCCCC1,-2.1,11,0.2,-5,-6,-0.2,-6.8,-2%
CN(CC(=O)Nc1c(F)cccc1F)Cc1cccs1,-0.1,-12,1.1,1,-2,-0.3,2.5,-7%
CC(=O)c1ccc(NC(=O)c2ccc(C)c(Br)c2)cc1,-2.3,8,0.9,8,11,-1.4,3.6,nt
CN1CCN(C(=O)C2CC(=O)N(c3ccc(F)c(Cl)c3)C2)CC1 (stereo not given),0.6,19,?,nt,-2,-0.2,-4.1,0%
CC(=O)c1c(C)[nH]c(C(=O)COC(=O)c2ccc3c(=O)n4c(nc3c2)CCC4)c1C,nt,9,0.7,-1,1,0.5,0.9,-12%
CCc1ccc(C(=O)NNC(=O)[C@H](C)NC(=O)c2ccco2)cc1,-3.7,nt,nt,-2,nt,-0.4,-1.2,nt
Cc1ccc(NS(=O)(=O)c2cccc3nsnc23)cc1,2.0,20,1.0,-10,14,-0.5,2.5,?
COc1ccc(CCNS(=O)(=O)c2c(N)n(C)c(=O)n(C)c2=O)cc1OC,2.3,-5,-12,-2,-19,-0.1,4.4,0%
CC1(C)C(=O)Nc2ccccc2N1C(=O)COC(=O)c1cccnc1Cl,-0.1,nt,nt,-1,nt,-0.1,-2.7,nt
COc1ccc(S(=O)(=O)N2CCN(CC(=O)c3ccc(O)c(O)c3)CC2)cc1,-17,-10,-2.1,-5,-7,0.6,8.1,nt
Cc1cc(NC(=O)CSc2nnc(C)n2-c2ccccc2C)no1,-1.1,-6,-1.7,-1,-1,0.4,4.1,nt
SMILES,AF4-AF9 inh,T cruzi repl,RanGTP-Impb inh,Beta cell apopt,Calb FLC,A1 inh,LANA-H2A inh,Vif TR-FRET
COc1ccc(Cl)cc1NC(=O)CCNC(=O)Cn1ccc2ccccc2c1=O,nt,-3,3.7,-8,-12,0.7,3.1,nt
CCOc1ccccc1-c1nc(CN(Cc2cnn(C)c2)C(C)C)c(C)o1,2.3,-6,5.0,-8,3,1.1,0.3,0%
COCCCNc1nc2nonc2nc1NCCSC,-15,-5,-0.1,-5,5,-0.4,2.1,-9%
COc1ccccc1C(=O)Nc1ccc2c(c1)nc1n2CCSC1,nt,nt,nt,9,nt,-4.5,-1.8,2%
Cc1ccc(NC(=O)NC2CCCCC2)c(C)c1,2.1,-6,2.4,-2,-12,-0.2,6.6,nt
Cc1cc(C)c(C(=O)COC(=O)c2nn(C)c(=O)c3ccccc23)cc1C,2.8,nt,nt,-1,nt,0.5,-1.5,-2%
O=C1c2ccccc2S(=O)(=O)N1Cc1cccc(S(=O)(=O)N2CCOCC2)c1,nt,-1,-1.4,-2,3,1.1,-4.0,-4%
COc1ccccc1NC(=O)CC1C(=O)Nc2ccccc2N1C(=O)c1ccccc1 (stereo not given),-0.2,-6,0.0,1,4,0.2,-6.4,?
O=C(CNc1cc(S(=O)(=O)N2CCOCC2)ccc1NCC1CCCO1)Nc1ccc(F)c(F)c1 (stereo not given),0.4,8,0.9,-1,-12,0.7,-1.5,nt
CCCCCCCCOC(=O)C1=C(C)Nc2nnnn2C1c1cccs1 (stereo not given),nt,29,-0.7,2,7,0.3,3.0,31%
CCc1ccc(NC(=O)c2cc(S(=O)(=O)N3CCc4ccccc43)cn2C)cc1,4.7,23,-0.1,1,4,1.0,-7.8,nt
O=[N+]([O-])c1ccc(N2CCN(Cc3ccccc3)CC2)nc1,8.8,0,1.9,nt,3,-0.2,0.7,12%
COCC(C)n1c(SCC(=O)NC(=O)Cc2ccccc2)nc2ccccc2c1=O (stereo not given),-0.5,nt,nt,-2,nt,0.2,2.7,3%
NS(=O)(=O)c1ccc(NC(=S)Nc2ccc(OCc3ccccc3)cc2)cc1,-4.2,9,-2.8,-1,9,0.2,2.3,-5%
O=C(CCC(=O)N1CCN(c2cccc(Cl)c2)CC1)c1cccs1,0.0,23,1.1,0,4,0.6,7.8,12%
COc1cc(C(=O)NCC(=O)OCC(=O)Nc2nnc(-c3ccccc3)o2)cc(OC)c1OC,0.3,-1,?,nt,-5,1.0,-0.5,5%
CCC(C)NC(=O)c1ccc(CS(=O)(=O)c2ccc(OC)cc2)o1 (stereo not given),-1.5,-10,-4.7,-4,1,1.2,2.8,-2%
O=C(c1ccc(NS(=O)(=O)c2ccc(F)cc2)cc1)N1CCC1,-1.8,-6,?,-3,3,-0.8,-0.9,5%
CSCCCNC(=O)c1ccc(OC2CCN(C(=O)c3cccnc3)CC2)cc1,8.7,7,1.4,2,0,0.8,-1.6,6%
Cc1ccc(OCCCCN2CCC(C)CC2)c(Br)c1,nt,18,2.8,6,4,0.2,3.5,29%
C/C(=N\NC(=O)c1nc2ccccn2c1C)c1cc2ccccc2o1,2.5,13,-1.3,-3,-13,-0.7,0.4,4%
O=C(CSc1ccc2nnc(-c3ccncc3)n2n1)NCc1ccco1,5.3,-1,-3.3,6,2,-1.4,-1.7,16%
